LT uptake inh – inhibitors of anthrax lethal toxin internalization; Cells, anthrax lethal toxin internalization, FRET ratio (460/530); Potency, µM (top dose mostly 40 µM), without a hit: at the highest dose activity change, negative = inhibition, actives largely listed as inhibitors; 70,000 compounds, 0.67% hits; AID 912; active = well fitted falling ratio curve with the 530 nm signal flat; inconclusive = other ratio curves, or a change in one channel alone; inactive = flat curves in the ratio and both channels; the % refers to the ratio; also: % is scaled to controls: 0 for no effect and ±100 for the full control effect; nearly all actives have a fitted effect of over 50% in size; tested in ME-180 cells; beta-lactamase reporter
Prx2 Sm inh – blocks S. mansoni peroxiredoxin 2 enzymatic activity; AID 448; Potency, µM; S. mansoni Prx2 activity coupled to TGR/GSH (TGR is thioredoxin glutathione reductase), NADPH fluorescence loss, qHTS; some inactives read as strong as hits; 65,000 compounds, 0.07% hits; active means full or partial inhibition curve with a strong effect at the top dose; inconclusive means weaker partial or single-point curve; inactive means no accepted curve; also: series up to 57 µM; many of its hits are not listed in these tables
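Purified S. mansoni TGR and Prx2 in pH 7.4 phosphate buffer with EDTA and Tween-20 were preincubated with compounds for 15 min. Further NADPH/GSH was added, then a 2.5 mM H2O2 aliquot initiated turnover, followed kinetically by NADPH fluorescence.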
* marks the source's active call; other numbers are inactive results; u = inconclusive; x = not tested or not shown; [ ] = another dose, or the depositor's remark. Potency is read from the fitted curve at half-maximal effect. Some of the compounds tested, so the mix of outcomes need not match the whole.

SMILES	LT uptake inh	Prx2 Sm inh
CCOCCCNC(=O)C(Cc1ccccc1)NC(=O)c1ccco1 (stereo not given)	3.0%	>57
Cc1ccc(CN2CC34C=CC(O3)C(C(=O)NCc3ccc5c(c3)OCO5)C4C2=O)cc1 (stereo not given)	-1.0%	>57
Cc1cc(NC(=O)CSc2ncn(-c3ccccc3)n2)no1	7.0%	>57
Cc1ccc(S(=O)(=O)NC2OC(=O)C(Cl)=C2Cl)cc1 (stereo not given)	-27.8%	u
CCOC(=O)C1=C(C)NC2=C(C(=O)CC(C)(C)C2)C1c1ccc(N(C)C)cc1 (stereo not given)	-16.5%	>57
O=C1N(CC(=O)N2CCc3ccccc32)CCN1Cc1ccc(Cl)cc1	u	>57
Cc1c(Cl)cccc1NC(=O)CSCC(N)=O	-9.8%	>57
CN1CCN(c2ncc3nc(-c4cc(F)cc(F)c4)c(=O)n(-c4ccccc4)c3n2)CC1	u	>57
CC(=O)N1CCN(C(=O)CCc2nc3sc4c(c3c(=O)[nH]2)CCCC4)CC1	-0.3%	>57
Cc1nn(Cc2ccc(C(=O)N3c4ccc(F)cc4CCC3C)o2)c(C)c1Br (stereo not given)	-4.7%	>57
COc1ccc(N(C)C(=O)c2ccc3snnc3c2)cc1	-4.1%	>57
O=C(NC1CCCCCCC1)c1ccc2c(c1)OCO2	13.3%	>57
Cc1cc(N2C(=O)c3ccc(C(=O)NCc4ccccc4)cc3C2=O)no1	16.3%	>57
Cn1c(=O)c2c(nc(SCCNS(=O)(=O)c3ccccc3)n2C)n(C)c1=O	2.3%	>57
COc1ccc(C(=O)NCC(c2cccnc2)N2CCN(c3ccccc3)CC2)cc1OC (stereo not given)	7.5%	>57

In another format: 7 of the compounds above
Structure | LT uptake inh | Prx2 Sm inh
Cc1cc(NC(=O)CSc2ncn(-c3ccccc3)n2)no1 | 7.0% | >57
Cc1ccc(S(=O)(=O)NC2OC(=O)C(Cl)=C2Cl)cc1 (stereo not given) | -27.8% | u
CCOC(=O)C1=C(C)NC2=C(C(=O)CC(C)(C)C2)C1c1ccc(N(C)C)cc1 (stereo not given) | -16.5% | >57
O=C1N(CC(=O)N2CCc3ccccc32)CCN1Cc1ccc(Cl)cc1 | u | >57
Cc1c(Cl)cccc1NC(=O)CSCC(N)=O | -9.8% | >57
CN1CCN(c2ncc3nc(-c4cc(F)cc(F)c4)c(=O)n(-c4ccccc4)c3n2)CC1 | u | >57
CC(=O)N1CCN(C(=O)CCc2nc3sc4c(c3c(=O)[nH]2)CCCC4)CC1 | -0.3% | >57

(continued)
SMILES	LT uptake inh	Prx2 Sm inh
Cc1nn(C(=O)c2ccoc2C)c(N)c1-c1ccccc1	u	>57
C=CCn1c(COc2ccccc2)nnc1SCC(=O)O	1.8%	>57
Cn1ccnc1C(O)c1cc(C(C)(C)C)c(O)c(C(C)(C)C)c1 (stereo not given)	-2.4%	x
CC1=C(C(N)=O)C(c2ccc(C)o2)C(C(N)=O)=C(C)N1	-7.2%	>57
CC1(C)Cc2ccccc2-c2nnc(-c3ccc(O)cc3)n21	u	>57
COC(=O)c1ccc(COc2ccc(-c3nn[nH]n3)cc2)cc1	17.7%	>57
CCOCCCNC(=O)Cc1ccc(OC)c(OC)c1	4.1%	>57
COC(=O)[C@@]1(Cc2ccc(OC)cc2)[C@H]2c3cc(C(=O)N(C)C)n(Cc4nc5ccccc5[nH]4)c3C[C@H]2CN1C(=O)c1ccccc1	2.1%	>57
CN1CCc2c(sc(/N=C/c3cccs3)c2C(N)=O)C1	x	>57
O=C(CSc1nnc(CNc2ccccc2)o1)N1CCc2ccccc21	0.9%	>57
Cn1c(SC/C=C/c2ccccc2)nnc1-c1cccs1	-0.4%	>57
CC[C@@H](CS(=O)(=O)O)[N+](=O)[O-]	5.0%[8 µM]	>57
CCOC(=O)C(C)Sc1ncnc2nc[nH]c12 (stereo not given)	8.6%	>57
Nc1nc(CN2CCN(c3ccccc3F)CC2)nc(Nc2ccccc2)n1	-7.5%	>57
O=C(Nc1ccc(Cl)cc1)OCCn1nnnc1C(c1ccccc1)N1CCOCC1 (stereo not given)	-6.0%	>57
CCOc1cccc(-n2nnnc2-c2ccc(OC)cc2)c1	u	>57
[N-]=[N+]=CC(=O)C(Cc1ccccc1)N1C(=O)c2ccccc2C1=O (stereo not given)	6.5%	>57
O=C(C(NS(=O)(=O)c1cccc2nsnc12)c1ccccc1)N1CCN(c2ccccn2)CC1 (stereo not given)	5.4%	>57
CC1(C)CC2CC(C)(CN2S(=O)(=O)c2ccc(N)cc2)C1 (stereo not given)	-4.3%	x
COc1cc(NS(=O)(=O)c2ccc(OC)c(C)c2C)c(OC)cc1Cl	-29.0%	>57
O=C(c1ccc(N2C(=O)CCC2=O)cc1)N1CCOCC1	-8.9%	x
COc1cc(OC)c(OC)cc1CNC(C)C(O)c1ccccc1 (stereo not given)	u	>57
CN(Cc1ccco1)C(=O)Cn1c(=O)oc2cc(S(=O)(=O)NCc3ccccc3)ccc21	-3.8%	>57
Nc1ccc(N=Nc2ccccc2)c(N)n1	-1.1%	>57
Cc1cc(C(=O)N2CCN(c3ncccn3)CC2)sc1-c1ccccc1	-9.3%	>57
Cc1ccc(-c2cc(C(=O)NCc3ccco3)c3ccccc3n2)o1	-10.2%	>57
COc1cc(NS(=O)(=O)c2ccc(N)cc2)ncn1	-1.7%[3.58 µM]	>57
Cc1onc(-c2c(F)cccc2Cl)c1C(=O)N1CCN(S(C)(=O)=O)CC1	-0.8%	>57
COc1cccc(NS(=O)(=O)c2ccc3[nH]cc(C(=O)NC4CC4)c(=O)c3c2)c1	2.4%	>57
O=C1CC(c2ccco2)CC2=C1C(c1ccccc1)n1nc(C(F)(F)F)nc1N2 (stereo not given)	-6.0%	>57
COC(=O)C(Cc1ccccc1)NC(=O)CSc1nc(C)cc(=O)[nH]1 (stereo not given)	-4.5%	>57
COc1ccc(C(CNC(=O)c2ccc(S(=O)(=O)N3CCOCC3)cc2)N2CCCCC2)cc1 (stereo not given)	u	>57
O=C(O)C1CCCCC1C(=O)Nc1nc(-c2cccs2)cs1 (stereo not given)	-0.7%	>57
CCCCn1c2nc3ccccc3nc2c2c(=O)n(C(C)CC)cnc21 (stereo not given)	10.7%	>57
O=C(Cn1cnc2ccccc2c1=O)NCc1ccco1	-0.4%	>57
BrC(Br)Br	9.8%	x
CCCCOCCOCCOCc1cc2c(cc1CCC)OCO2	u	x
CCOc1ccc(-c2cc(CCCC(=O)Nc3cc(OC)ccc3OC)no2)cc1	-12.7%	u
Cc1cc(NC(=O)COC(=O)C2COc3ccccc3O2)no1 (stereo not given)	-5.0%	>57
COc1ccc(Cc2nnc(NC(=O)c3cccs3)s2)cc1	4.1%	>57
CCOC(=O)N1CCC(C(N)=O)CC1	4.7%	>57
Cc1csc(NC(=O)C(CC(C)C)NS(=O)(=O)c2ccc3c(c2)oc(=O)n3C)n1 (stereo not given)	1.2%	>57
CCc1ccc(-c2nc(CN3CCC(C(=O)N4CCN(c5ccccn5)CC4)CC3)c(C)o2)cc1	-12.8%	>57
O=C1NC(c2ccccc2)(C(F)(F)F)SC2=NCCCN12 (stereo not given)	1.2%	>57
COc1cc(-c2cccs2)cc(=O)c2c(C)oc(C)c12	-3.6%	>57

Among those listed so far, these have a COOH group.
SMILES	LT uptake inh	Prx2 Sm inh
C=CCn1c(COc2ccccc2)nnc1SCC(=O)O	1.8%	>57
O=C(O)C1CCCCC1C(=O)Nc1nc(-c2cccs2)cs1 (stereo not given)	-0.7%	>57

(listing goes on)
SMILES	LT uptake inh	Prx2 Sm inh
O=C(Cn1cnnn1)Nc1ccccc1Cc1ccccc1	u	>57
CSc1nc(C)c2cc(C)oc2n1	-10.0%	>57
O=c1[nH]c(CN2CCN(c3ccccc3)CC2)nc2ccccc12	-10.9%	>57
CC1(C)CC(n2c(=S)[nH]c3ccccc3c2=O)CCO1 (stereo not given)	-2.6%	>57
CCCCN(CCCNC(=O)C1CCN(S(=O)(=O)CC)CC1)c1ccccc1	2.4%	>57
CS(=N)(=O)CC[C@H](N)P(=O)(O)O (stereo not given in full)	-10.1%[8 µM]	>57
CC(=NCc1ccco1)c1c(C)[nH]n(-c2nc3ccccc3s2)c1=O	u	>57
CC(NC(=O)Cc1ccc(F)cc1)C(c1cccs1)N1CCN(C)CC1 (stereo not given)	-10.6%	>57
CCOc1ccccc1NC(=O)CCSc1nc2n[nH]c(C)c2c(=N)n1-c1ccccc1Cl	u	>57
Clc1cccc(Cl)c1COc1ccccn1	-7.1%	>57
CC(=O)c1ccc(NS(=O)(=O)c2ccccc2)cc1	-22.7%	x
Cc1ccc(NC(=O)c2ccccc2)s1	x	>57
CCOCCCNC(=O)CN1C(=O)CSc2cc(S(=O)(=O)N3CCCCCC3)ccc21	-1.6%	>57
CCCn1nnnc1SCC(=O)Nc1nnc(CC)s1	-4.2%	>57
CSc1ccc(S(=O)(=O)NCCOc2ccccc2C)cc1	-20.1%	>57
COc1cc2c(cc1NC(=O)CN1CCN(S(=O)(=O)c3ccc(F)cc3)CC1)oc1ccccc12	5.0%	>57
CC(C)NS(=O)(=O)c1cc(C(=O)O)ccc1Cl	2.4%	>57
Cn1c(=O)c2c(nc(SCC(=O)OCc3ccccc3)n2C)n(C)c1=O	u	>57
CCc1ccccc1-n1c(SCC(=O)NC)nnc1-c1cccnc1	-12.5%	>57
CC(=O)c1c(C)nn(CCC(=O)O)c1C	2.9%	>57
CN(C)CCCNC(=O)c1ccc(-c2ccccc2)cc1	u	>57
CC(=O)Nc1ccc(-c2nnc(SCC(=O)n3c4c(c5ccccc53)CCCC4)n2C)cc1	x	>57
COC(=O)[C@]1(C)CCC(c2ccc(C)cc2)=C(CC(=O)O)C1	-6.8%[8 µM]	>57
COc1ccc(C2CC(c3cccs3)n3nc(N)nc3N2)cc1 (stereo not given)	2.1%	>57
CNc1ncncc1-c1ccccc1OC	-7.9%	>57
O=C(Cc1ccccc1)NCCCN1CCN(CCCNC(=O)Cc2ccccc2)CC1	-19.4%	>57
COC(=O)c1ccc(C(NC(=O)OCc2ccccc2)/C(=C/[C@@H](C)C(=O)NCc2nc3ccccc3s2)c2cccnc2)cc1 (stereo not given in full)	15.4%	x
O=C(CN1C(=O)COc2ccccc21)N(Cc1ccc2c(c1)OCO2)CC1CCCO1 (stereo not given)	-18.6%	>57
COC(=O)Oc1nsnc1N1CCOCC1	u	>57
CCc1cccc(OCCCCNCCOC)c1	-26.1%	x
COc1ccc(CCNS(=O)(=O)c2cccc(F)c2)cc1OC	5.7%	>57
O=c1c(-c2ccc(F)cc2)nc2cnc(N3CCNCC3)nc2n1Cc1ccc(F)cc1	u	>57
O=S(=O)(c1cccc2ccccc12)N1CCSC1	u	x
COCCCNCC(=O)Nc1ccc(OC(F)(F)F)cc1	-27.8%	>57
CC(C)CN1C(=O)c2ccc(C(=O)Nc3nccs3)cc2C1=O	-13.1%	x
COc1ccc(-c2nnc(SCC(=O)N3CCC(Cc4ccccc4)CC3)o2)cc1OC	5.5%	>57
COc1ccc(N2CCN(C(=O)C(Cc3ccccc3)n3cccc3)CC2)cc1 (stereo not given)	-14.7%	>57
Cc1ccc(C)c(N2CCN(C(=O)CN3C(=O)c4ccccc4C3=O)CC2)c1	x	>57
COC(=O)c1ccc2[nH]c(C)c(CN3CCCC3)c(=O)c2c1	-9.8%	>57
O=C(COC(=O)c1ccc(S(=O)(=O)N2CCOCC2)cc1)NC1CCCCCC1	2.1%	>57
O=C(CSc1ccccn1)N1CCN(C(=O)CSc2ccccn2)CC1	-8.1%	>57
COC(=O)CNC(=O)Cc1c(F)cccc1Cl	1.2%	>57
Cc1noc(/C=C/NCc2cccnc2)c1S(=O)(=O)N(C)CC(=O)N1CCc2ccccc21	u	>57
COc1ccc(C[N+](C)(C)N)cc1OC	-5.9%[8 µM]	>57
O=C(O)C1C2C=CC(O2)C1C(=O)Nc1ccccc1C(F)(F)F (stereo not given)	-19.4%	>57
C=CCSc1nnc(-c2ccccc2NC(=O)CC)c(=O)[nH]1	5.2%	>57
C=CCN=C(NC#N)SCC(=O)c1cccc(OC)c1	-22.7%	>57
CCN(CC)c1ccc(C2CC(=O)NC3=C2C(=O)CC(C)(C)C3)cc1 (stereo not given)	u	>57
Cc1cc2c(nc1C)CCCN2C[C@H](C)O/N=C\[C@@H](C)[C@H](OCc1ccccc1)C(C)C	u	x
COCC(=O)n1nc(NCc2ccc(OC)cc2)nc1NCc1ccc(OC)cc1	5.7%	>57
Cn1c(=O)oc2cc(S(=O)(=O)N3CCCC(C(=O)N4CCn5c4nc4ccccc45)C3)ccc21 (stereo not given)	-1.5%	>57
Cc1cc(C)c2cc(C(O)c3nnnn3Cc3ccccc3)c(=O)[nH]c2c1 (stereo not given)	u	>57
COc1cc2c(cc1OC)CN(Cc1nc3ccsc3c(=O)[nH]1)CC2	-10.5%	>57
Cc1cccc(NCc2ccccc2O)c1	-4.8%	>57
COc1ccc2c(=O)cc(C(F)(F)C(F)(F)F)oc2c1	0.9%	x
CC(=O)Nc1c(C(=O)O)oc2ccc(Cl)cc12	-9.6%	>57
Cc1cnc(NC(=O)CN(C)S(=O)(=O)c2ccc(Cl)cc2)s1	-12.6%	>57
NC(=O)c1ccc(N2CCCCC2)c(N2C(=O)C3C4C=CC(C4)C3C2=O)c1 (stereo not given)	-2.8%	x
CCOC(=O)N1CCN(C(=O)c2ccc(Cn3c(=S)[nH]c4cc5c(cc4c3=O)OCO5)cc2)CC1	40.4%	>57
CS(=O)(=O)N(CC(=O)N1CCCCCC1)c1ccccc1	7.0%	>57
CC1CCN(CCCNC(=O)c2cc3sccc3n2C)CC1	-5.7%	>57
